TRPML1 agonist: qHTS for Agonists of the Human Mucolipin Transient Receptor Potential 1 (TRPML1); TRPML1-expressing cells, Ca2+ dye fluorescence, FDSS; host cell line not named in the record; reference of the full effect not given here; AID 624414, 2012; activation, % (test concentration not listed); 410,000 tested, 0.12% active; in the data active = activation above about 50%; inconclusive = about 30% to 50%; inactive = below about 30%; note: 0% is about no effect; the text of the record puts the active cut at 80%
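Agonist activity was taken from a 110 s kinetic Ca2+ dye read on the FDSS after pinning compounds onto TRPML1-DL cells. The cells were seeded at 1,500/well with Tet inducer, incubated about 16 h, then dye-loaded at room temperature.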
D2 ag: Beta-Arrestin HTS for Positive Allosteric Modulators of the Human D2 Dopamine Receptor: Agonists; DiscoveRx PathHunter D2 beta-arrestin, luminescence, 90 min; 100% = 57 uM dopamine signal; activation, % (concentration not given with the values); 360,000 tested, 0.084% active; AID 624465, 2012; in the data active = activation above about 40%; inconclusive = about 15% to 40%; inactive = below about 15%; note: compound concentration not given in the record; the text of the record calls up to 30% inactive
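DiscoveRx PathHunter D2 beta-arrestin cells (2,100/well) attached overnight, then compound-stimulated 90 min at 37 C in HBSS/10 mM HEPES/0.1% Tween-20 buffer; beta-galactosidase complementation read by luminescence after 1 h at ambient temperature. Dopamine 57 uM final (EC100) as control.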
CtBP-E1A blk: qHTS Assay for Inhibitors of the CtBP/E1A Interaction. 340,000 tested, 0.49% active. CtBP / adenovirus E1A interaction (AlphaScreen). AlphaScreen GST-E1A/His-CtBP binding, 1536-well; hits give low values; control for the full effect not named in the record. activity change, % (no concentration beside the values); in the data active means activity change below about -65%; inconclusive means about -30% to -65%; inactive means above about -30%; note: % is set by controls: 0 for no effect and ±100 for the full control effect; compound concentration not given in the record
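Homogeneous bead-based format: GST-tagged E1A captured on glutathione donor beads, His-tagged CtBP on nickel acceptor beads; compounds precede bead addition by 2 h at 37 °C.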
TRPML1 blocker: qHTS for Inhibitors of the Human Mucolipin Transient Receptor Potential 1 (TRPML1). Mucolipin-1 (Homo sapiens), Q9GZU1. TRPML1-inducible cells, Ca2+ dye fluorescence, FDSS; hits give low values; inhibition of EC80 agonist-evoked calcium signal. activity change, negative = inhibition, % (concentration not given with the values). 390,000 tested, 0.02% active; in the data active means activity change below about -50%; inconclusive means about -30% to -50%; inactive means above about -30%;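 note: stimulus is agonist 54-4 at its EC80 concentration; % is set by controls: 0 for no effect and ±100 for the full control effect; compound concentration not given in the record; the text of the record puts the active cut at -80%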
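Calcium fluorescence in TRPML1-DL cells induced overnight with Tet: a 110 s read after compound pin addition, then a 110 s antagonist read after challenge with 54-4 at 4 uM final (EC80).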
Six1-Eya2 inh: qHTS Assay for Inhibitors of the Six1/Eya2 Interaction | AID 651725, 2012 | 360,000 tested, 0.56% active | activity change, % (concentration not given with the values) | AlphaScreen GST-Six1/His-Eya2 binding, biochemical; hits give low values; control for the full effect not named in the record; in the data active = activity change below about -65%; inconclusive = about -30% to -65%; inactive = above about -30%; note: % is set by controls: 0 for no effect and ±100 for the full control effect
Target sequence (O00167 whole entry, looked up): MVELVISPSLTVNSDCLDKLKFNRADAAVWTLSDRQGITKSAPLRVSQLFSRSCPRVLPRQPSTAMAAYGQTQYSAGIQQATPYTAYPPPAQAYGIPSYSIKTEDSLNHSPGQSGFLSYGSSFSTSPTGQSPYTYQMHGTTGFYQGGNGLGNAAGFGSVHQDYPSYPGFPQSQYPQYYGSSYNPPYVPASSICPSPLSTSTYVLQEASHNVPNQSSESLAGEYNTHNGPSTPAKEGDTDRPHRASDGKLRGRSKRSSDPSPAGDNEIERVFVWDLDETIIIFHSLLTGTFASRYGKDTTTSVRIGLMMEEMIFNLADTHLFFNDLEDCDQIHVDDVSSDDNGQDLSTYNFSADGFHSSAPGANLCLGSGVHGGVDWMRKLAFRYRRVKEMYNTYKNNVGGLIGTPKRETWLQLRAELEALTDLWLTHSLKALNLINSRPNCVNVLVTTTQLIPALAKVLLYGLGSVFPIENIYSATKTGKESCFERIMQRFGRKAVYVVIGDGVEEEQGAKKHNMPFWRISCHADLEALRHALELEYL
Target sequence (Q15475 whole entry, looked up): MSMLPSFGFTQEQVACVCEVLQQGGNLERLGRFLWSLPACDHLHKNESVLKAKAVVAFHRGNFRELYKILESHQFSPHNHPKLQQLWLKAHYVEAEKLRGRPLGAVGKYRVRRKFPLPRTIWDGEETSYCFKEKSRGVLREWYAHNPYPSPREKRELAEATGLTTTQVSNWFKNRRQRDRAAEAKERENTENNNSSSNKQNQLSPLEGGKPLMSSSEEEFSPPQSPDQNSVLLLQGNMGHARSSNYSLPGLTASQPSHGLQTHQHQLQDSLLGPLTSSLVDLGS
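GST-Six1 + His-Eya2 (5X stock: 250/500 nM); Tris pH 8.0, 300 mM NaCl, 0.05% BSA, 0.02% Tween 20; GSH donor/Ni acceptor beads; 1 h 37 °C dark; AlphaScreen readout.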
PINK1 expr mod: A Quantitative High throughput Screen to Identify Chemical Modulators of PINK1 Expression; PINK1 immunofluorescence, high-content cytometry, 24 h; Potency, µM (series often up to 76.6 µM), inactives show at the top dose activation (PINK1 increase), hits mostly activators; 410,000 tested, 0.2% active; AID 624263, 2012; active = well fitted activation curve with a large enough effect; inconclusive = small, poorly fitted or top-dose-only effect; inactive = flat fitted curve, though single readings scatter; cell line not stated here;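 note: potency is the fitted concentration of half-maximal effect; % of control where 0% means no effect; nearly all actives have a fitted effect of over 65% in size; a mitochondrial uncoupler was the plate control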
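Compound titrations (5 concentrations, 24 h) on a stable cell line; DMSO and CCCP controls. Endpoint: fixed-cell PINK1 immunofluorescence with mitochondrial, cell and nuclear markers, scanned by microplate cytometer.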
* hit, by the source's call; ? = inconclusive; nt = no result given; [ ] = remark or other dose.

molecule	TRPML1 agonist	D2 ag	CtBP-E1A blk	TRPML1 blocker	Six1-Eya2 inh	PINK1 expr mod
CC1CCCC(NC(=O)CNC(=O)c2cccs2)C1C (configuration not stated)	0.6	-3.9	1	-13	-1	-2.7%
CCOC(=O)C1CCCN(C(=O)c2ccc(C(=O)c3ccccc3)cc2)C1 (configuration not stated)	-1.3	-2.6	nt	7	2	4.4%
CC(NC(=O)c1c(O)nc2ccccn2c1=O)c1ccccc1 (configuration not stated)	-0.2	nt	nt	-15	nt	1.6%
Clc1cccc(N2CCN(c3nc4ccccc4c4nc(-c5ccccc5)nn34)CC2)c1	-0.7	nt	nt	-12	nt	0.8%
CCOc1ccccc1N(C)C(=O)CCS(=O)(=O)c1ccc2c(c1)NC(=O)C(C)S2 (configuration not stated)	0.2	6.8	3	1	-1	-0.1%
COCC(C)NC(=S)N1CCN(c2ccccc2Cl)CC1 (configuration not stated)	-0.6	-6.5	-4	-5	2	1.4%
Cc1cc(NC(=O)CN2C(=O)c3ccccc3S2(=O)=O)no1	-0.5	1.9	6	5	3	-0.4%
CCOc1ccc(NC(=O)CCN2CCCCC2)cc1	-0.8	-0.6	5	2	-1	1.0%[38.3 µM]
CC1=C(c2ccc(C(C)C)cc2)S(=O)(=O)N=C1N1CCC(C(=O)NCc2ccco2)CC1	1.5	nt	nt	-6	nt	9.1%
CC1(C(=O)NS(=O)(=O)c2ccccc2Cl)CCN1C(=O)C1CC1 (configuration not stated)	0.0	-4.5	4	25	6	-0.9%
N#CCCN(C(=O)COC(=O)c1ccc2c(c1)OCO2)c1ccccc1	-0.4	-5.7	nt	-10	0	-0.2%
CCn1c(SCC(=O)N2CCN(c3ccccc3)CC2)nnc1-c1ccoc1C	-0.4	-2.9	-1	4	1	1.7%
COc1ccc(C(=O)c2c(C(F)(F)F)oc3c2C(=O)c2ccccc2C3=O)cc1	2.1	8.9	?	20	?	-2.5%
Nc1nc(-c2ccco2)nn1S(=O)(=O)c1ccccc1	-0.5	-5.5	-7	18	6	1.0%
COc1ccc(C(=O)c2c3ccc(OC)cc3[n+]([O-])n2CCCC(N)=O)cc1	-0.3	5.7	0	-9	9	-1.1%
CC(=O)Nc1ccc2c(c1)CCc1ccccc1-2	1.2	-2.9	4	-1	-4	0.9%
Cc1oc(-c2ccccc2Cl)nc1CS(=O)(=O)CC(=O)NCCc1ccccc1	0.7	-0.5	-5	-15	-2	0.3%
O=C(Nc1ccc(F)c(Cl)c1)c1ccc2nc([C@@H]3O[C@H](CO)[C@H](O)[C@H](O)[C@H]3O)[nH]c2c1	-0.8	3.0	4	nt	10	3.9%
Cc1ccc(-n2ncc3c(=O)n(CC(=O)OCc4ccccc4)cnc32)cc1	0.5	2.0	3	7	1	3.8%[38.3 µM]
O=C(N/N=C/c1cccnc1)c1cc(-c2cccs2)nc2ccccc12	2.0	2.9	-8	-3	-8	9.0%
CC(C)CNS(=O)(=O)c1ccccc1C(=O)N1CCCCC1	-0.7	-3.3	7	28	4	0.8%[38.3 µM]
CC(=O)N1c2ccc(S(=O)(=O)N(C)CC(=O)NC3CCCC3)cc2CC1C (configuration not stated)	-0.7	-2.7	-4	-6	3	2.5%
Cc1cc(-c2ccccc2)n2nc(N)nc2n1	nt	-7.8	3	nt	-1	0.7%
O=C(COC(=O)C1CC1)NCc1ccccc1	0.3	-2.9	0	0	-3	0.3%
CC(C)c1ccc(CC(=O)N2CCC2(C)C(=O)NCc2cccc3ccccc23)cc1 (configuration not stated)	2.4	-1.6	5	45	-6	-1.0%
COCc1cc(Sc2c(Cl)cccc2Cl)nc(-c2ccccc2)n1	0.8	-4.9	0	1	38	30%
CN1C(=O)Cc2cc(S(=O)(=O)CCC(=O)Nc3ccc(F)c(Cl)c3)ccc21	-0.5	nt	nt	7	nt	1.4%
CCCNS(=O)(=O)c1ccc(CCC(=O)NCc2ccco2)cc1	0.1	-1.2	-1	20	-2	-0.4%
O=c1cc(CN2CCN(c3ccccc3F)CC2)c2cc3c(cc2o1)CCCC3	-0.4	2.8	2	-5	2	26%[38.3 µM]
COc1ccc(OC)c(-n2c(SCC(C)=O)nnc2-c2cccc(S(=O)(=O)N(C)C)c2)c1	1.4	-0.7	-1	0	1	0.3%

In the list so far, three have an aryl methoxy group.
molecule	TRPML1 agonist	D2 ag	CtBP-E1A blk	TRPML1 blocker	Six1-Eya2 inh	PINK1 expr mod
COc1ccc(C(=O)c2c(C(F)(F)F)oc3c2C(=O)c2ccccc2C3=O)cc1	2.1	8.9	?	20	?	-2.5%
COc1ccc(C(=O)c2c3ccc(OC)cc3[n+]([O-])n2CCCC(N)=O)cc1	-0.3	5.7	0	-9	9	-1.1%
COc1ccc(OC)c(-n2c(SCC(C)=O)nnc2-c2cccc(S(=O)(=O)N(C)C)c2)c1	1.4	-0.7	-1	0	1	0.3%

Next part.
molecule	TRPML1 agonist	D2 ag	CtBP-E1A blk	TRPML1 blocker	Six1-Eya2 inh	PINK1 expr mod
Cc1ccc(CSC2=NCCN2C(=O)c2ccc(S(=O)(=O)N(C)C)cc2)cc1	0.6	-2.6	nt	25	7	0.1%
COC(=O)C1CCN(S(=O)(=O)c2cc3c4c(c2)C(C)C(=O)N4CCC3)CC1 (configuration not stated)	-0.3	nt	nt	37	nt	0.7%
COc1ccccc1N(CN1CCCC1=O)C(=O)COc1ccccc1	0.2	0.2	-1	10	4	nt
CN1CC(=O)N(CC(=O)NC2CCCCC2)C1=O	-0.2	-6.8	7	8	1	-0.3%
COC(=O)C1=C(C(=O)OC)[C@@H]2N(Cc3ccccc3)c3ccccc3[C@@]23C[C@@H](C(=O)OC)N(C(=O)c2ccc(Br)cc2)C3=N1	-0.1	-2.5	-6	71	-11	?
CCOc1cccc2c1OC1(CCCCC1)N1N=C(c3cccnc3)CC21 (configuration not stated)	-0.7	-0.1	-12	-13	-14	-1.6%
O=C1/C(=C\c2ccco2)SC(=S)N1c1ccc(O)cc1	2.2	-1.4	-11	2	-5	5.1%
COCC(=O)Oc1cc(-c2ccc(C)cc2C)c(OC(=O)COC)c(-c2ccc(C)cc2C)c1	0.6	2.7	12	-11	15	?
COC(=O)C1C(=O)C2=C(CC1C)NC(=O)CC2c1ccccc1 (configuration not stated)	-0.7	-2.3	0	7	-1	-1.7%
Cc1cccc(CNC(=O)CN2C(=O)CSc3c2c(C)nn3-c2ccccc2)c1	-1.2	nt	nt	5	nt	5.0%
CCCCN1CC(Br)C(=O)NC1=O (configuration not stated)	-0.4	-0.1	10	0	5	-1.7%
OCCN1CCN(c2cc(C(F)(F)F)nc3ccccc23)CC1	-0.6	-1.4	3	-3	3	0.4%
ON1C(c2ccccc2C(F)(F)F)N(O)[C@H]2CCCC[C@H]21 (some centres not stated)	0.0	0.2	9	3	3	-3.0%
O=C1C(NS(=O)(=O)c2cccs2)=C(N2CCN(c3ccccc3)CC2)C(=O)c2ccccc21	-1.7	3.7	-22	-7	-22	-2.0%
CN1C(=O)c2ccccc2Sc2ccc(NC(=O)NCc3ccc(Cl)cc3)cc21	1.8	nt	nt	2	nt	0.3%
CCOC(=O)c1c(C)[nH]c(C(=O)OCC(=O)Nc2cccnc2Cl)c1C	1.7	5.0	-3	40	-13	-0.5%
Cc1ccc(/C=N/NC(=O)CNC(=O)c2cccs2)cc1	0.1	-1.2	2	-9	1	1.4%
C=CCn1c(CC(C)(C)C)nc2ccccc21	-0.5	-1.4	-2	-24	3	-0.1%
COc1cc(C2=NOC(C(=O)Nc3ccc(C(C)=O)cc3)C2)cc(OC)c1OC (configuration not stated)	0.3	-1.6	-12	28	-1	0.2%[38.3 µM]
O=C(NCCCCNC(=O)C(F)(F)F)C(F)(F)F	-0.2	-1.1	12	-9	-4	2.4%
CN(C)c1ccc(S(=O)(=O)NCC(=O)OCC(=O)Nc2cc(Cl)cc(Cl)c2)cc1[N+](=O)[O-]	0.7	0.0	-2	-2	-13	4.8%
COc1ccc(OC)c(NC(=O)CSc2nnc(CNC(=O)c3ccco3)o2)c1	-1.2	-4.0	3	27	-2	1.0%
Cc1cc2nc3c(=O)[nH]c(=O)[nH]c3nc2c([N+](=O)[O-])c1N	8.1	0.6	-82*	1	-84*	-0.1%
CC1(C)Cc2c(cnn2-c2ccccc2)C(NC(=O)c2ccc[n+]([O-])c2)C1 (configuration not stated)	-0.2	0.4	-3	3	7	5.2%
CCC(C)(C)n1nnnc1C(c1cccs1)N1CCc2ccccc21 (configuration not stated)	2.6	-2.5	4	27	-20	nt
CCOC(=O)c1c(N)sc(C(=O)Nc2ccccc2)c1C	2.0	-2.8	nt	9	5	0.1%
COc1cc(C=O)c(-c2c(C=O)cc(OC)c3c2OCO3)c2c1OCO2	1.2	-0.3	-5	21	5	1.2%
CC1(C(=O)NS(=O)(=O)c2ccc(F)cc2F)CCN1C(=O)C1(c2ccc(Cl)cc2)CC1 (configuration not stated)	-0.3	9.4	5	nt	-3	0.2%
CCOC(=O)CSc1nnc(CNC(=O)c2ccco2)n1C	-0.1	-0.1	7	-5	3	-1.2%[38.3 µM]
CCn1cc(CNC(=O)c2cc(-c3cc(OC)ccc3OC)nc3ccccc23)c(C)n1	3.2	-4.2	-15	9	-9	4.0%

Part of the list above, limited to TRPML1 blocker, Six1-Eya2 inh and CtBP-E1A blk:
SMILES	TRPML1 blocker	Six1-Eya2 inh	CtBP-E1A blk
O=c1cc(CN2CCN(c3ccccc3F)CC2)c2cc3c(cc2o1)CCCC3	-5	2	2
CCn1cc(CNC(=O)c2cc(-c3cc(OC)ccc3OC)nc3ccccc23)c(C)n1	9	-9	-15
O=C1/C(=C\c2ccco2)SC(=S)N1c1ccc(O)cc1	2	-5	-11
